From PubChem
KCNQ2 block = KCNQ2 potassium channel inhibitors, primary screen, cell-based, CHO-K1, FluxOR thallium flux, B-score (AID 2156) | 20 min; active compounds read low; only compounds with negative scores are shown here; some inactives read as strong as hits | B-score at 10 µM | hit rate 1.1% among 310,000;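 active means fluorescence ratio B-score at most minus 3 library SDs, with starting brightness B-score within 2 library SDs, cut at about -5.5 in these data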
Target sequence (O88943 whole entry, looked up): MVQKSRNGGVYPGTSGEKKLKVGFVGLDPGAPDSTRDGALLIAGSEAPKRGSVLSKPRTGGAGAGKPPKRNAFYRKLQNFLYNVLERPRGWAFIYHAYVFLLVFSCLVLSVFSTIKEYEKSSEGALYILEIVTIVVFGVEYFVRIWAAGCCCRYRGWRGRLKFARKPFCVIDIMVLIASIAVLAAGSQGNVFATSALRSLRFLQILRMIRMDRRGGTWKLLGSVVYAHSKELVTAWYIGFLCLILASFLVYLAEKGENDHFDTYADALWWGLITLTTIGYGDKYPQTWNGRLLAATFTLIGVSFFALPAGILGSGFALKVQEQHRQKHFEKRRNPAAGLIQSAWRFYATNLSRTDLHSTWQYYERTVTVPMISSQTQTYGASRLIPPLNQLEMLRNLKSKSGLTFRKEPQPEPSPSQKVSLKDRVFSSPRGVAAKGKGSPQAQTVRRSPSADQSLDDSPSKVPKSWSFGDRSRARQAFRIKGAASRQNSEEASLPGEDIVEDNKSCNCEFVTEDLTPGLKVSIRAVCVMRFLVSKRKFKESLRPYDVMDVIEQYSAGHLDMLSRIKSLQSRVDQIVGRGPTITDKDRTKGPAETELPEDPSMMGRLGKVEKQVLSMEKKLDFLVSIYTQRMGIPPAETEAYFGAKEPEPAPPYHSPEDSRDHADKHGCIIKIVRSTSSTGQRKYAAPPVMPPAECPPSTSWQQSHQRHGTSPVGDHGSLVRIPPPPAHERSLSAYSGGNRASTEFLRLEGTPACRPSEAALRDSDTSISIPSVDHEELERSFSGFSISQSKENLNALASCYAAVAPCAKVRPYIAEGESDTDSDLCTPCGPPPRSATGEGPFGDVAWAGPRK
KCNQ2 block baseline = recorded beside KCNQ2 block, whose call it bears; B-score; measured here: initial fluorescence intensity artifact check;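 brightness before thallium and not channel activity; 0 = typical well and far values either way flag optical interference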
An asterisk follows results filed as active; i = inactive. An excerpt; rates above refer to the full screens.

SMILES | KCNQ2 block | KCNQ2 block baseline
O=C(Nc1nnc(-c2ccco2)s1)C1CCN(S(=O)(=O)c2ccc(Cl)cc2)CC1 | i | -1.2
CCS(=O)(=O)N1CCC(C(=O)Oc2ccc(Cl)cc2)CC1 | i | -0.28
CC1=C(C(=O)Nc2ccccc2C)C(c2ccc(C)o2)N2C(=O)CSC2=N1 (stereo not given) | i | 0.02
CCc1nc(OCc2ccccc2)c2sc3nc4c(cc3c2n1)COC(C)(C)C4 | i | 1.1
Cc1ccc2cc(C#N)c(NCc3ccccc3)nc2c1 | i | 1.4
N#CC(C(=O)NCCc1ccccc1)c1nc2ccccc2nc1N1CCCCC1 (stereo not given) | i | -0.84
CCCN(CCC)c1ccc(C(O)c2nnc(-c3ccccc3)o2)cc1 (stereo not given) | i | 1
COc1cccc(-c2nn(-c3ccccc3)cc2CN(C)Cc2ccon2)c1 | i | -0.03
CC(C)C(C(=O)OCC(=O)c1ccccc1)N1C(=O)C2C3C=CC(C3)C2C1=O (stereo not given) | i | 0.29
COc1cccc2c1OC1(C)CC2NC(=O)N1Cc1ccccc1 (stereo not given) | i | 1.9
CC(=O)Nc1c(C(=O)O)[nH]c2ccccc12 | i | -1
Oc1c(C(Nc2nc3ccccc3s2)c2ccco2)ccc2cccnc12 (stereo not given) | i | -1.3
COC(=O)c1ccc(NS(=O)(=O)c2ccc3c(c2)n(C)c(=O)n3C)cc1 | i | 0.58
Cc1c(O)ccc(NS(=O)(=O)c2ccccc2)c1C | i | -1.1
O=C(CN1CCN(Cc2ccccc2)CC1)NCc1ccccc1Cl | i | 1.5
O=C1OCC2=C1C(c1ccc(F)cc1)CC(=O)N2c1ccc(F)cc1 (stereo not given) | i | -1.1
N#Cc1c(NC(=O)c2cnccn2)sc2c1CCCC2 | i | 0.77
Cc1cc(C)c2nc(SCC(=O)N3CCCCC3)c(C#N)cc2c1 | i | -0.44
Cc1ccc(OCCC(=O)OCC(=O)Nc2ccc3[nH]c(=O)[nH]c3c2)cc1 | i | 0.44
Cc1cc2nc(C3CCCN(C(=S)Nc4ccccc4)C3)[nH]c2cc1C (stereo not given) | i | 1.6
Cc1ccc(CN2CCN(Cc3cccc(-n4cccn4)c3)CC2CCO)cc1 (stereo not given) | i | 0.3
N/C(=N\OC(=O)C1CCCCC1)c1ccc(Br)cc1 | i | -0.08
O=C(COC(=O)CNC(=O)c1ccc(Cl)cc1)Nc1ccc(Cl)cc1C(F)(F)F | i | 1
Cc1cccc(C)c1NC(=O)CCS(=O)(=O)c1cccc2nsnc12 | i | -0.02
Cc1ccc(-n2ncc3c(NNC(=O)Cc4ccccc4)ncnc32)cc1 | i | -1.3
CC(C)Oc1ccc(C(CC(=O)O)NC(=O)c2cccs2)cc1 (stereo not given) | i | 0.36
CCOc1ccc2nc(N3CCCC(C(=O)N4CCN(CC)CC4)C3)sc2c1 (stereo not given) | i | 1.5
CCS(=O)(=O)Nc1cccc(C(=O)CC2(O)C(=O)Nc3ccccc32)c1 (stereo not given) | i | 0.1
CCN(c1cccc(C)c1)S(=O)(=O)c1ccc2c(c1)oc(=O)n2C | i | -0.75
CCOc1ccc(N2C(=O)c3cccnc3C2Nc2ccc(Cl)cc2)cc1 (stereo not given) | i | -0.15
CN(CCC#N)C(=O)COC(=O)C1c2ccccc2Oc2ccccc21 | i | 0.02
Cc1nn2c(N3CCN(C)CC3)c3c(nc2c1-c1ccccc1)CCCC3 | i | 0.99
CC(=O)c1cccc(NC(=S)NC(=O)Cc2ccccc2)c1 | i | 0.63
Cc1ccc2c(c1)C(O)(c1c(C)[nH]c3ccccc13)C(=O)N2 (stereo not given) | i | 0.07
Cc1ccccc1Cn1nnc(-c2ccc3c(c2)OCO3)n1 | i | 2.2
CCCC1C(=O)Nc2ccccc2N1C(=O)c1ccc(C(C)(C)C)cc1 (stereo not given) | i | 0.98
CCC[C@@H]1C[C@@]1(CCC)[C@@H](NP(=O)(c1ccccc1)c1ccccc1)c1ccc(C(=O)OC)cc1 | i | -1.6
CSc1ccc(C2c3[nH]c4ccccc4c3CCN2C(=O)c2ccnn2C)cc1 (stereo not given) | i | -2.2
CCC(=O)N(Cc1ccco1)C1CC(=O)N(c2ccccc2)C1=O (stereo not given) | i | 0.03
CC1CCCCN1C(=O)C(Cc1ccccc1)N1C(=O)C2CCCCC2C1=O (stereo not given) | i | -1.4
CC(CN1CCCCC1)OC(=O)c1ccccc1F (stereo not given) | i | -0.63
COc1ccc(C(=O)N2CCC(C(=O)N3CCN(c4ccccc4)CC3)CC2)cc1 | i | 0.62
O=C(c1ccc(Cn2c(=S)[nH]c3cc4c(cc3c2=O)OCO4)cc1)N1CCN(c2ccccc2)CC1 | i | -0.8
C/C(=N/NS(=O)(=O)c1ccc(Cl)cc1)c1cccc(NC(=O)c2ccncc2)c1 | i | 0.89
c1ccc2cc(Cn3ccnc3)ccc2c1 | i | 0.79
CC(C)N(C(=S)NC1CCCCC1)c1ccccc1 | i | 0.95
Fc1ccccc1Nc1nc(NCc2ccco2)nc(N2CCOCC2)n1 | i | -0.5
COC(=O)c1ccccc1NC(=O)Cn1ccnc1 | i | 0.45
O=S(=O)(NCCSc1ccc(Cl)cc1)c1ccc2c(c1)OCCO2 | i | 0.07
COC(=O)c1csc(S(=O)(=O)N2CCOCC2)c1OC | i | -0.01
More entries:
SMILES | KCNQ2 block | KCNQ2 block baseline
COc1ccc(C(=O)Nc2cc(C)nn2-c2cccc(F)c2)cc1 | i | -2.1
COc1nc(NC(C)(C)C)nc(Oc2ccc(=O)n(C)n2)n1 | i | 2.2
CN(Cc1ccco1)C(=O)Cn1ncc2c([nH]c3ccccc32)c1=O | i | -0.57
CCc1cccc2c(/C=N/NC(=O)c3cccc(S(=O)(=O)Nc4ccccc4Cl)c3)c[nH]c12 | i | 1.4
O=C(CCNS(=O)(=O)c1ccc(Cl)cc1)OCC(=O)N1CCN(C(=O)c2ccco2)CC1 | i | -0.77
CCOCCCNC(=O)c1cc(C)nn1-c1ccccc1 | i | -0.26
Cc1ccn2c(C(=O)NN=C3CCCCCCC3)c(C)nc2c1 | i | 0.15
CCN(CC)S(=O)(=O)c1ccc(N(C)C)c(NC(=O)C2CCCC2)c1 | i | -0.38
CN(C(=S)NC(=O)CCCOc1ccc(Cl)cc1Cl)c1ccccc1 | i | 0.53
COc1ccc(S(=O)(=O)N2CCN(C(=O)NC3CCCCC3)CC2)cc1OC | i | 0.65
CC(C)NC(=S)N/N=C1\CCCCC1C1CCCCC1 (stereo not given) | i | 2.3
Cc1ccc(NC(=O)CCC(=O)OCC(=O)c2ccc(-c3ccccc3)cc2)cc1 | i | 0.3
CC1=C(Sc2nc3ccccc3[nH]2)C(=O)NC(C)(C)C1 | i | 0.46
COc1ccccc1N1CCN(C(=O)c2cccc(C(=O)N3CCN(c4ccccc4OC)CC3)c2)CC1 | i | 0.04
Cc1cccc(N2CCN(C(=O)C(NS(=O)(=O)c3cccs3)c3ccccc3)CC2)c1C (stereo not given) | i | 0.47
COC(=O)N1[C@H](C)C=C[C@]1(Cc1ccccc1)C(=O)NCCCNc1ncc(C(F)(F)F)cc1Cl | i | 0.69
COc1cc(Br)cc2cc(C(=O)N3CCCCC3C)c(=O)oc12 (stereo not given) | i | -0.01
Cc1ccc(Cl)cc1N1C(=O)CC(Sc2ncccn2)C1=O (stereo not given) | i | 0.96
O=C(CSc1nc2ncccc2[nH]1)NC1CCCCC1 | i | -0.21
CN(CC1CCCN(CCc2ccccc2F)C1)C(=O)c1ccoc1 (stereo not given) | i | 0.56
CCOC(=O)N1c2ccccc2Sc2ccccc21 | i | -0.22
O=C(Cn1nc(-c2cccc(Cl)c2)ccc1=O)Nc1cccnc1 | i | -2
CCN(C(=O)/C=C/c1ccccc1)C1CCCCC1 | -5.8* | -0.33*
CCOC(=O)Cc1csc(NC(=O)COc2ccc(C)c(C)c2)n1 | i | -1.2
O=C(Nc1nnc(Cc2ccc(Cl)cc2)s1)c1cccs1 | i | 0.94
Cc1cc(SCC(=O)N(C)CC(=O)Nc2ccc(F)cc2)nc2ccccc12 | i | 0.27
COc1ccc(F)cc1Cn1nc(C(=O)O)c2ccccc2c1=O | i | 0.75
Cc1ccc(S(=O)(=O)CC(=O)c2ccc(C(C)(C)C)cc2)cc1 | i | -0.8
Cc1ccc(NC(=O)COc2ccccc2)c(NC(=O)c2ccco2)c1 | i | 0.6
CCCn1c2ccccc2c2nnc(SCC(=O)Nc3nnc(CC(=O)OCC)s3)nc21 | i | -3

The last 3 compounds of the part before lead into the next:
SMILES | KCNQ2 block | KCNQ2 block baseline
Cc1ccc(S(=O)(=O)CC(=O)c2ccc(C(C)(C)C)cc2)cc1 | i | -0.8
Cc1ccc(NC(=O)COc2ccccc2)c(NC(=O)c2ccco2)c1 | i | 0.6
CCCn1c2ccccc2c2nnc(SCC(=O)Nc3nnc(CC(=O)OCC)s3)nc21 | i | -3
c1ccc(-n2cnnc2SCc2nc3ccccc3s2)cc1 | i | 3.8
COc1ccc(N=C2C(=O)Nc3c(C)cccc32)cc1 | i | 0.3
COc1ccc(C2(O)C(=O)Nc3ccc(C)cc32)cc1 (stereo not given) | i | 2
O=C(NCc1ccccc1Cl)c1cc2c(s1)CS(=O)(=O)C2 | i | 1
Cc1ccccc1CN1[C@@H](CC2CCCCC2)COCCS1(=O)=O | i | -3.3
Cc1c(O)ccc(/C=N/Nc2nc(-c3cccnc3)nc3ccccc23)c1O | i | -0.28
CCN(CC)c1ccc(/C=C/c2cc(-c3ccccc3)c3ccccc3n2)cc1 | i | -0.49
O=c1c2ccccc2c(C=NCCc2ccccc2)c(O)n1Cc1ccccc1 | i | -1.8
C/C=C/c1cc(CN2CCN(c3ccccc3)CC2)c(O)c(OC)c1 | i | 0.97
O=C(NCC(c1ccco1)N1CCN(c2ccccc2)CC1)OCc1ccccc1 (stereo not given) | i | 0.6
CCN1CCN(C(c2ccccc2OC)c2nnnn2C2CCCCC2)CC1 (stereo not given) | i | -0.35
Cc1sc2nc(CSC(C)C(=O)Nc3cc(S(C)(=O)=O)ccc3Cl)[nH]c(=O)c2c1C (stereo not given) | i | 0.2
COCCCNC(=S)Nc1cccc2ncccc12 | i | 0.03
CC(C)OC(=O)c1c(-c2ccc(C(C)C)cc2)csc1NC(=O)C1CCCO1 (stereo not given) | -7.2* | 1*
N#Cc1ccc(N2CCN(c3ccc(F)cc3)CC2)cc1 | i | -0.3
Cn1cnnc1SCC(=O)c1ccc(OC(F)F)cc1 | i | 0.27
O=S(=O)(c1ccc2c(c1)OCCO2)N1CCC(c2nc3ccccc3s2)CC1 | i | -0.21
Cc1ccc2[nH]c3c(N4CCN(Cc5ccccc5)CC4)ncnc3c2c1 | i | 0.01
Cc1ccc(S(=O)(=O)N(Cc2c(F)cccc2Cl)C(=O)N2CCN(C)CC2)cc1 | i | 0.01
O=C(NC1CCCC1)C(c1ccc(N2CCOCC2)cc1)N(Cc1ccco1)C(=O)c1ccco1 (stereo not given) | i | 0.64
CNC(=S)N(CCc1c(C)[nH]c2ccc(OC)cc12)Cc1cc(OC)c(OC)c(OC)c1 | i | -0.09
CSc1ccccc1NC(=O)c1cc(-c2ccc3c(c2)OCO3)on1 | i | -2.8
CCN(CC)C(=O)CSc1nnc2c3ccccc3n(C)c2n1 | i | 0.21
O=CN1CCN(C(=O)c2ccc(Br)o2)CC1 | i | -0.85
O=C(CSc1nccn(-c2cccc(F)c2)c1=O)Nc1ccc(Cl)cc1F | i | -1.2
CC1Cc2nc(SCC(=O)Nc3ccc(F)cc3F)n(C)c(=O)c2S1 (stereo not given) | i | 0.66
CCCCC(CC)C(=O)Nc1ccc(Nc2ccccc2)cc1 (stereo not given) | i | 1.2
CC1=C/C(=C(\c2ccc(O)c(C)c2)c2ccccc2S(=O)(=O)O)C=CC1=O | i | -0.1
COC(=O)c1nn(-c2cccc(C)c2)c2nnc(Cc3ccccc3)c(=O)n12 | i | 0.04
COc1cccc(CCNC(=O)CCc2nnc(-c3ccc4c(c3)OCO4)o2)c1 | i | -1

Some of the entries so far, tab-delimited:
structure	KCNQ2 block	KCNQ2 block baseline
CNC(=S)N(CCc1c(C)[nH]c2ccc(OC)cc12)Cc1cc(OC)c(OC)c(OC)c1	i	-0.09
CSc1ccccc1NC(=O)c1cc(-c2ccc3c(c2)OCO3)on1	i	-2.8
CCN(CC)C(=O)CSc1nnc2c3ccccc3n(C)c2n1	i	0.21
O=CN1CCN(C(=O)c2ccc(Br)o2)CC1	i	-0.85
O=C(CSc1nccn(-c2cccc(F)c2)c1=O)Nc1ccc(Cl)cc1F	i	-1.2

Next part
SMILES | KCNQ2 block | KCNQ2 block baseline
CCOc1ccc(OCCOCCN2CCCC2)cc1 | i | -0.07
O/N=C\c1ccc2noc(-c3ccc(Cl)cc3)c2c1 | i | -0.06
CCS(=O)(=O)c1ccc(-c2cccc(NC(=O)c3ccc(Br)o3)c2)nn1 | i | -0.05
CC1(C)C(C=C(Cl)Cl)C1C(=O)NC(O)C(=O)c1ccccc1 (stereo not given) | i | -0.64
C(=C\c1ccccc1)/CN1CCN(c2ncnc3c2oc2ccccc23)CC1 | i | -0.18

3 entries from above, sorted by their value in KCNQ2 block baseline, falling.
SMILES | KCNQ2 block baseline
CCCN(CCC)c1ccc(C(O)c2nnc(-c3ccccc3)o2)cc1 (stereo not given) | 1
O=C(NC1CCCC1)C(c1ccc(N2CCOCC2)cc1)N(Cc1ccco1)C(=O)c1ccco1 (stereo not given) | 0.64
N/C(=N\OC(=O)C1CCCCC1)c1ccc(Br)cc1 | -0.08
